# Bioassay records: PubChem, several laboratories
# HNF4A DNA FP = change in binding of human HNF4A to DNA, primary screen, biochemical, fluorescence polarization, FITC-DNA; Hepatocyte nuclear factor 4-alpha (Homo sapiens), P41235; 1 h; activity change, % at 10 µM; 360,000 compounds, 0.3% hits; AID 1224865, 2016; in the data active = activity change above about 30%, passing the limit was not always enough;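 also: controls were the assay level and a saturating level of protein; the project sought stronger binding though the title names inhibitors; some compounds called inactive have numbers as strong as hits; positive values seem to mean higher polarization but the record does not say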
# Vif TR-FRET = inhibitors of Vif binding to APOBEC3G peptide, primary screen, biochemical, TR-FRET, GST-Vif 1-94, biotin-A3G peptide, dose response retest (AID 1117319); Virion infectivity factor (Human immunodeficiency virus type 1 group M subtype B (isolate …; TR-FRET GST-Vif / biotin-A3G peptide binding; higher % means a stronger effect; test concentration not given here; strong numbers were not always called active; inhibition, %; hits with a dose series show IC50 in µM; 260,000 compounds, 0.57% hits;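 active = above the screen mean plus three standard deviations and confirmed in dose response; inconclusive = results disagree or hit not tested in dose response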;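 also: Vif residues 1-94 fused to GST binding biotinylated APOBEC3G peptide 110-148; 0% = full assay without inhibitor and 100% = GST in place of GST-Vif; retest series ran down from 100 µM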
# rRNA inh HTS = reduced GFP signal of wild-type E. coli, primary screen, bacterial rRNA inhibitor project, GFP/RFP fluorescence, OD600, single point | 350,000 compounds, 1.6% hits | E. coli WT GFP vs humanized-ribosome RFP mutants, 24 h; hits give low values; DMSO median 0, no signal -100 | GFP signal change (wild-type ribosome), % (concentration not given with the values) | AID 720706, 2013;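 active = significant combined selectivity score with lowered wild-type GFP, culture density cut under 30%, mutant RFP and density less affected; inactive = any of these conditions unmet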; also: one replicate is shown; some compounds called inactive have numbers as strong as hits
# MLL AF4-AF9 inh = inhibitors of AF4 peptide binding to AF9, primary screen, biochemical, AlphaScreen, biotin-AF4 peptide, FLAG-AF9, single point; 350,000 compounds, 0.47% hits; Protein AF-9 (Homo sapiens), P42568; inhibition, % at 10 µM;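 active = every replicate reaching a set inhibition limit, whatever the replicate mean, cut at about 25% in these data; inconclusive = mean inhibition reaches that limit but some replicates miss it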;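 also: 0% = plate neutral control median and 100% = total signal loss; the record names both 10 and 1 µM as test concentration; the first replicate is given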
# Target sequence (P42568 whole entry, looked up): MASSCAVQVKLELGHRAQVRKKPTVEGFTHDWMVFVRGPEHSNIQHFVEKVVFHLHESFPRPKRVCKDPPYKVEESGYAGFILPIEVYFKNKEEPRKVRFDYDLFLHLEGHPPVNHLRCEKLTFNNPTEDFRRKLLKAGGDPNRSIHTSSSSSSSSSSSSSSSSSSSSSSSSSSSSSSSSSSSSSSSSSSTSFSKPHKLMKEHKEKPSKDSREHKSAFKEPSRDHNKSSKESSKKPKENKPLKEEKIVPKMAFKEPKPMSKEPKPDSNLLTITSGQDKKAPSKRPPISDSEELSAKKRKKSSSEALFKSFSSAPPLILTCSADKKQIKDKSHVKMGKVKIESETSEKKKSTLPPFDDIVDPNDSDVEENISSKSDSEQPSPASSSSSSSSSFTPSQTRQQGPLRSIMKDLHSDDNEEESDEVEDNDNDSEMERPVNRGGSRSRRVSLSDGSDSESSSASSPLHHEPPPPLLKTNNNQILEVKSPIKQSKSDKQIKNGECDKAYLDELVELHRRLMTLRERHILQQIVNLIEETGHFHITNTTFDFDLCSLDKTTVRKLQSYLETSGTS
# E coli growth = E. coli growth inhibition, primary screen, OD600; 330,000 compounds, 0.21% hits; OD600 absorbance (test concentration not listed); Escherichia coli growth, 23 h; hits give low values;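 active = OD600 absorbance below the run mean of sample wells minus 3.6 SD, in any replicate, cut at about 0.56 in these data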;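 also: stock transfer was 300 nL into about 60 µL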
# FGF22 binding = binders of human FGF22 protein, primary screen, FGF22 synaptogenesis inhibitor project, biophysical, thermal shift, single point. Fibroblast growth factor 22 (Homo sapiens), Q9HCT0. recombinant FGF22 thermal shift, SYPRO orange fluorescence; percent of sucrose octasulfate shift, DMSO zero. calls only at 9.99 µM. 340,000 compounds, 1.5% hits;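 active = melting point raised past a set limit in the mean and every replicate; inconclusive = no clear call; three in four hits are not shown here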
# Target sequence (Q9HCT0 whole entry, looked up): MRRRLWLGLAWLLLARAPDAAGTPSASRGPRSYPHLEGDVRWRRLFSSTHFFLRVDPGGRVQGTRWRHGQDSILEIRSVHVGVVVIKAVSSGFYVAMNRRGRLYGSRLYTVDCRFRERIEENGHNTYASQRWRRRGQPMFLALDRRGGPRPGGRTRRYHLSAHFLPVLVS
# ALR inh = inhibitors of human ALR sulfhydryl oxidase, primary screen, biochemical, H2O2 detection, HRP-luminol luminescence, single point; FAD-linked sulfhydryl oxidase ALR (Homo sapiens), P55789; purified ALR, DTT oxidation; 290,000 compounds, 3.8% hits; inhibition, % (concentration not given with the values);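 active = mean and each replicate at 75% or more; inconclusive = only one of the two met; inactive = neither met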;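 also: stock transfer was 7.5 nL into about 7.5 µL; 0% = neutral wells and 100% = wells with inactivated enzyme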
# Target sequence (P55789 whole entry, looked up): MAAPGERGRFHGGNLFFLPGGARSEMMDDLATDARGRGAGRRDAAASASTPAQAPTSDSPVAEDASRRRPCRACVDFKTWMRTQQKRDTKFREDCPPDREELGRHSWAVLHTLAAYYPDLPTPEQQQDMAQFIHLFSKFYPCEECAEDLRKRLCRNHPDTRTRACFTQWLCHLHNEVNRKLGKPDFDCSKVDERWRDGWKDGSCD
# rRNA inh HTS OD600 = recorded beside rRNA inh HTS, whose call it bears; OD600 change, %; measured here: OD600 growth;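 optical density of the mix in the first replicate; 0 = DMSO median and -100 = no signal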
# rRNA inh HTS RFP = also measured in rRNA inh HTS; calls as there; RFP signal change, %; measured here: RFP humanized mutant strains;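 first replicate; 0 = DMSO median and -100 = no signal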
# * hit, by the source's call; i = inactive; ? = inconclusive; . = no result given; & = joins results of further samples.
mol	ALR inh	FGF22 binding	rRNA inh HTS RFP	rRNA inh HTS OD600	rRNA inh HTS	Vif TR-FRET	HNF4A DNA FP	MLL AF4-AF9 inh	E coli growth
O=C(Nc1cccc(Cl)c1)N[C@@H]1CC[C@H](CCn2cc(Cc3ccccc3)nn2)O[C@H]1CO	.	i	3.3	-33	-14	.	.	1.0	.
Cc1[nH]c2ccccc2c1SCC(=O)Nc1nccs1	97*	i	-2.2*	-17*	-22*	-7%	0.6	-1.0	0.68
CN1C(=O)c2cc(NC(=O)C3CCOCC3)ccc2OC[C@@H]2O[C@H](CC(=O)NC3CCCC3)CC[C@H]21	.	i	-0.4	5	6	.	.	0.1	.
[O-][n+]1onc2c1C(N1CCOCC1)CCC2N1CCOCC1 (stereo not drawn)	.	.	.	.	.	2%	3.8	.	0.74
Cc1cc(C(F)F)n2nc(C(=O)Nc3ccccc3F)nc2n1	-1	.	.	.	.	-8%&3%	-1.1	.	0.67
O=C(O)CCC(=O)NNC(=O)CCCOc1ccc(Cl)cc1Cl	.	.	.	.	.	-8%	2.8	.	0.77
O=C(NCCc1ccccc1)C(=O)NC1CCCCC1	-11	i	-0.8	9	1	0%	-0.3	-0.2	0.63
NC(=O)COC(=O)[C@H](Cc1ccccc1)NS(=O)(=O)c1ccc2c(c1)OCCO2	.	i	5.0	2	3	3%	-3.8	1.2	0.68
O=C(Cc1ccccc1)Nc1ccc2oc(=O)ccc2c1	11	i	.	.	.	.	-3.0	-6.1	0.67
Cc1noc(C)c1NC(=O)N(C)C[C@H]1Oc2ccc(NC(=O)C3CCCCC3)cc2C(=O)N([C@@H](C)CO)C[C@H]1C	.	i	-2.1	-6	0	.	.	-1.3	.
CCC1CCCCN1CCN1C(=O)C2C(C(=O)Nc3ccc(OC)cc3)C3C=CC2(O3)C1C(=O)NC1CCCCC1 (stereo not drawn)	-7	i	0.2	9	0	.	1.0	-0.8	0.62
COc1cccc(-c2cnc3c(c2)C(=O)N([C@H](C)CO)C[C@H](C)[C@H](CN(C)S(=O)(=O)c2cccs2)O3)c1	.	i	0.9	0	1	.	.	-0.2	.
Fc1ccc(CN2CC[C@H]3C=CCc4cccc(c43)C2)cc1	-12	i	7.4	-15	-13	.	-13	-7.5	.
NC(=O)NC(=O)COC(=O)CN1C(=O)C2CCCCC2C1=O (stereo not drawn)	.	i	0.5	21	19	-4%	-2.4	8.1	0.7
CCN(CC)C(=O)c1ccc(C(=O)c2c(C)cc(C)cc2C)cc1	-8	.	.	.	.	10%	0.2	.	0.69
O=C(N/N=C/c1cccnc1)c1ccco1	-3	i	1.1	5	26	-2%	3.6	-5.3	.
COC(=O)c1ccc(C(=O)OC)c(NC2=NS(=O)(=O)c3ccccc32)c1	-6	.	-1.4	15	3	-14%	-2.2	.	0.68
OCCN1CCOCCN(CCO)CCOCC1	.	.	.	.	.	6%	-1.9	.	0.7
COc1cc(C(=O)N2CCN(C(=O)c3ccco3)CC2)c([N+](=O)[O-])cc1OC	3	i	-2.7	18	10	0%	-1.8	-1.9	0.65
Cc1nnc(SCC(=O)NC2CCS(=O)(=O)C2)n1-c1ccccc1 (stereo not drawn)	.	.	0.4	11	6	-5%	-6.1	0.3	0.72
CCCn1c(N2CCN(S(=O)(=O)Cc3ccccc3)CC2)nc2ccccc21	.	.	.	.	.	-6%	1.5	.	0.74
CCCCn1nc(C(=O)Nc2ccc(-n3cnnn3)cc2)c2ccccc2c1=O	1	i	-1.5	12	8	?	-3.4	2.1	0.66
COc1cc(/C=N/NC(=O)C2(O)c3ccccc3-c3ccccc32)ccc1O	99*	i	-0.7	3	7	10%	-2.2	0.3	.
COC(=O)CCCC(=O)Nc1c(F)c(F)c(F)c(F)c1F	-1	.	.	.	.	24µM*	-1.8	.	0.71
COc1ccc(N2CCN(C3CCCN(C(=O)CN4CCCCC4=O)C3)CC2)cc1 (stereo not drawn)	47	i	-1.7	3	7	.	-0.5	3.0	0.66
COc1ccccc1NC(=O)C(C)N(C)CCOc1ccccc1 (stereo not drawn)	-11	i	-0.1	-18	-13	1%	3.6	4.0	0.71
Cc1ccc(NC(=S)NNC(=O)Cn2nc(C(F)F)cc2C(F)F)cc1	68	i	.	.	.	.	0.7	-2.3	0.73
Nc1ccc2c(c1)C(=NO)c1cc([N+](=O)[O-])ccc1-2	.	i	-22	-16	-13	-1%	52*	2.4	.
NCCSc1c(-c2ccccc2)[nH]c2ccccc12	97*	i	-0.6	3	9	-4%	1.1	-5.1	0.76
O=C(C[C@@H]1CC[C@H]2[C@@H](COC[C@@H](O)CN2S(=O)(=O)c2ccc(Cl)cc2)O1)NCC1CCCCC1	.	i	16	21	-1	.	.	34*	.

# Three entries already listed, ordered by molecular weight, ascending.
mol	ALR inh	FGF22 binding	rRNA inh HTS RFP	rRNA inh HTS OD600	rRNA inh HTS	Vif TR-FRET	HNF4A DNA FP	MLL AF4-AF9 inh	E coli growth
NCCSc1c(-c2ccccc2)[nH]c2ccccc12	97*	i	-0.6	3	9	-4%	1.1	-5.1	0.76
CCCCn1nc(C(=O)Nc2ccc(-n3cnnn3)cc2)c2ccccc2c1=O	1	i	-1.5	12	8	?	-3.4	2.1	0.66
O=C(C[C@@H]1CC[C@H]2[C@@H](COC[C@@H](O)CN2S(=O)(=O)c2ccc(Cl)cc2)O1)NCC1CCCCC1	.	i	16	21	-1	.	.	34*	.

# Next entries.
mol	ALR inh	FGF22 binding	rRNA inh HTS RFP	rRNA inh HTS OD600	rRNA inh HTS	Vif TR-FRET	HNF4A DNA FP	MLL AF4-AF9 inh	E coli growth
CCc1nc2ccc(C(=O)N3CCCC(C(N)=O)C3)cn2c1N(CCC(C)C)CCN(C)C (stereo not drawn)	.	i	-0.7	3	1	.	-3.0	-6.6	.
CNC[C@@H]1Oc2c(NS(=O)(=O)c3ccc(Cl)cc3)cccc2C(=O)N([C@@H](C)CO)C[C@@H]1C	.	i	0.7	12	4	.	.	-2.1	.
CCOC(=O)C1=C(COC(=O)/C=C/c2ccccc2F)NC(=O)NC1C (stereo not drawn)	5	i	3.1	-1	4	.	-0.5	-3.1	.
COc1cc(S(=O)(=O)Nc2ccc(C)cc2)ccc1N=Cc1c(C)[nH]n(-c2ccccc2)c1=O	1	i	-7.6	5	3	-13%	4.5	11	0.72
C[C@@H]1CN([C@H](C)CO)C(=O)c2cc(-c3cccc(F)c3)cnc2O[C@@H]1CN(C)S(=O)(=O)c1cccc(F)c1	.	i	-0.6	-9	-1	.	.	0.5	.
C[C@H]1CCCCO[C@H](CN(C)C(=O)c2ccncc2)[C@@H](C)CN([C@@H](C)CO)C(=O)c2cc(NS(=O)(=O)c3ccc(Cl)cc3)ccc2O1	.	i	-0.2	-5	-2	.	.	-1.0	.
COC(=O)CCC(=O)OC	.	i	-7.1	3	-4	.	-0.5	-2.4	0.76
C[C@@H]1CCCCO[C@@H](CN(C)C(=O)c2ccncc2)[C@H](C)CN([C@@H](C)CO)C(=O)c2cc(NS(=O)(=O)c3ccc(F)cc3)ccc2O1	.	i	1.2	1	-1	.	.	-3.4	.
C[C@@H](O)C#Cc1cnc2c(c1)C(=O)N([C@@H](C)CO)C[C@H](C)[C@H](CN(C)Cc1ccccn1)O2	.	i	-3.3	10	7	.	.	-3.4	.
CCOc1ccc(NC(=O)COC(=O)Cc2ccc(S(=O)(=O)N3CCOCC3)s2)cc1	7	.	.	.	.	6%	5.2	.	0.66
Cc1ccc(-c2noc(-c3ccccc3C(=O)N3CCN(C)CC3)n2)cc1	-2	.	.	.	.	17%	-2.3	.	0.79
Cc1ccc(-c2ccc3c(c2)O[C@@H](CN(C)Cc2ccc(C(=O)O)cc2)[C@@H](C)CN([C@@H](C)CO)S3(=O)=O)cc1	.	i	-2.5	2	-3	.	.	0.9	.
CCOc1ccc(OCC(=O)Nc2nccs2)cc1	-13	.	.	.	.	1%	0.9	.	0.63
Cc1ccnc(NC(=O)CCC(=O)N(CC(=O)NC(C)(C)C)c2ccc3c(c2)OCCO3)c1	40	.	-3.9	4	19	-2%	1.2	-0.7	0.65
COc1cc(NS(=O)(=O)c2ccc(C)cc2)ccc1-n1cnnn1	-7	.	.	.	.	-4%	2.6	.	0.68
COC(=O)c1cnc2c(c(C)nn2C)c1OC	0	i	0.4	7	15	1%	1.5	0.2	0.7
O=S(=O)(N[C@H](CO)Cc1ccccc1)c1ccc(Br)cc1F	.	i	0.3	-7	-4	1%	-2.1	1.1	0.68
C[C@H](CO)N1C[C@H](C)[C@H](CN(C)C(=O)Nc2cc(F)ccc2F)Oc2ncc(C#CCN(C)C)cc2C1=O	.	i	-1.1	11	4	.	.	2.2	.
CCCCN1CNC(=S)N(c2cc(C)ccc2C)C1	-5	.	.	.	.	-5%	-0.4	.	0.72
C=CCN=C1CCCc2c1[nH]c1ccc(C)cc21	.	i	-4.8	-15	-20	8%	2.2	3.4	0.66
Cc1noc(C)c1S(=O)(=O)Nc1cccc(CO)c1	2	i	0.1	6	6	.	3.1	-2.4	0.69
O=C(NC(=S)N1CCCCC1c1cccnc1)c1ccc(Br)cc1 (stereo not drawn)	-4	i	0.1	-9	-12	.	-1.0	-10	0.68
CCn1c(=O)c(=O)[nH]c2cc(C(=O)NCc3ccc(F)cc3)ccc21	-11	i	5.5	12	2	.	0.9	-4.4	0.69
OC(COc1ccc(F)cc1)CN1CCN(CC(O)COc2ccc(F)cc2)CC1 (stereo not drawn)	-3	i	-1.4	6	3	-8%	-1.6	1.1	0.69
Cc1ccc(S(=O)(=O)CCC(=O)OCC(=O)Nc2cc(C)on2)cc1	1	.	.	.	.	0%	-0.8	.	0.75
CCOC(=O)c1ccc(NC(=O)c2cc3c(C)nn(-c4ccccc4Cl)c3s2)s1	-3	i	10	20	8	-2%	-0.8	-2.6	0.7
O=C(Nc1ccccc1)Nc1ccc(Cl)c([N+](=O)[O-])c1	.	i	-16	-38	-47	1%	0.2	6.9	0.48*
O=C(CCCN1C(=O)c2ccccc2C1=O)Nc1ccccc1	-30	i	1.1	13	7	-4%	4.7	1.1	0.64
Cc1ccc(S(=O)(=O)Nc2ccc3c(c2)C(=O)N([C@@H](C)CO)C[C@H](C)[C@@H](CN(C)C(=O)CCCN(C)C)OCCCC[C@H](C)O3)cc1	.	i	0.2	5	5	.	.	2.6	.
O=C(CCSc1ccc(F)cc1)Nc1ccc(-n2cnnn2)cc1	-2	.	.	.	.	-3%	0.0	.	0.7
Cc1ccc(C(=O)CSC2=NC(N)=C(C#N)C3(CCCCC3)C2C(N)=O)cc1 (stereo not drawn)	97*	.	.	.	.	17%	1.0	.	0.75
O=C(Nc1ccnc(-c2cccnc2)n1)c1ccc(Cl)cc1	-9	.	.	.	.	5%	-0.3	.	0.67

# Individual results from above.
# C[C@@H]1CCCCO[C@@H](CN(C)C(=O)c2ccncc2)[C@H](C)CN([C@@H](C)CO)C(=O)c2cc(NS(=O)(=O)c3ccc(F)cc3)ccc2O1 | rRNA inh HTS = -1
# O=C(CCSc1ccc(F)cc1)Nc1ccc(-n2cnnn2)cc1 | HNF4A DNA FP = 0.0
# COc1cc(NS(=O)(=O)c2ccc(C)cc2)ccc1-n1cnnn1 | Vif TR-FRET = -4%

# Only part of the results is shown (hit frequency here may not be typical).
